StopGo FLuc = Primary qHTS Assay for Foot and Mouth Disease Virus Antivirals against NCGC Sytravon and CBC Compound Libraries: Firefly Luciferase Signal; HEK cells with a luciferase reporter of 2A StopGo recoding; Potency, µM (series often up to 57.5 µM), for the others: at the top dose signal change, negative = less light; actives 0.23% (n = 120,000); AID 1745856, 2022; active = well fitted falling curve with a large enough effect; inconclusive = small, poorly fitted or top-dose-only effect; inactive = no such curve, though single readings can be large or run the other way; note: nearly all actives have a fitted effect of over 60% in size; overnight with compound
StopGo RLuc = Primary qHTS Assay for Foot and Mouth Disease Virus Antivirals against NCGC Sytravon and CBC Compound Libraries: Renilla Luciferase Signal | HEK cells with a luciferase reporter of 2A StopGo recoding | Potency, µM (highest dose often 57.5 µM), without a hit: top-dose signal change, negative = less light | actives 0.32% (n = 120,000) | AID 1745857, 2022; active means well fitted falling curve with a large enough effect; inconclusive means small, poorly fitted or top-dose-only effect; inactive means no such curve, though single readings can be large or run the other way; note: nearly all actives have a fitted effect of over 55% in size; overnight with compound
An asterisk follows results filed as active; ? = inconclusive; & = joins results of further samples; [ ] = dose if it differs, or a comment. % is set by controls: 0 for no effect and ±100 for the full control effect; potency is the fitted concentration of half-maximal effect. The list is partial; count on the stated rates, not on these rows.

The line under a structure holds: StopGo FLuc | StopGo RLuc
> CC(C)c1ccccc1NS(=O)(=O)c1ccc(CCC(=O)O)cc1
    -18% | ?
> CC(C)CCNc1nnnc2c1sc1nc(N3CCOCC3)c3c(c12)CC(C)(C)SC3
    -6% | 5%
> Cc1cc(C)c(NC(=O)Cc2ccc(-n3c(C)nc4cccnc43)cc2)c(C)c1
    ? | ?
> O=C(Nc1cccc(F)c1)C1CCN(S(=O)(=O)c2cccc3nsnc23)CC1
    -14% | 2%
> C=CCN(CC#Cc1ccccn1)Cc1ccc(OC)cc1OC
    0% | 0%
> CCc1ccc(CNC(=O)CCc2c(C)nn(-c3ccc(N4CCCCC4)nn3)c2C)cc1
    -11% | 3%
> Cc1ccc(CN(C)C(=O)Cn2cnc3c2c(=O)n(C)c(=O)n3C)o1
    -3% | -9%
> CCc1ccc(OCC(=O)Nc2cc3oc4ccccc4c3cc2OC)c(Br)c1
    3% | -2%
> N#CC(CC(=O)N1CCCC1)(CC(=O)N1CCCC1)c1nc2ccccc2s1
    12% | 174%[activator]
> Cc1onc(-c2ccccc2)c1-c1nnc(CSc2nnnn2C)o1
    -3% | -15%
> Cn1cc(S(=O)(=O)c2cccc(Cl)c2)c(=O)c2cc(F)c(N3CCCCC3)cc21
    -8% | 2%
> CCC1(C)Cc2nc3sc4c(=O)n(CC(=O)NCc5ccccc5)cnc4c3cc2CO1 (stereo not given)
    149%[activator] | 34%[activator]
> Cc1cccc(C(=O)OC2CCCN(C)C2)c1 (stereo not given)
    12% | -8%
> O=S(=O)(Nc1ccc(F)c(Cl)c1)c1ccc(Br)s1
    0% | -3%
> O=C(Cn1cnc2ccccc2c1=O)Nc1ccc(Cl)c(S(=O)(=O)N2CCOCC2)c1
    21% | 14%
> Cc1cccc2c(=O)cc(CSc3ccccc3NC(=O)c3cccc(Br)c3)[nH]c12
    -9% | 7%
> Cc1ccc(CNC(=O)CC(C)S(=O)(=O)c2ccc3c(c2)CCN3C(=O)C2CC2)cc1 (stereo not given)
    48%[activator] | 46%[activator]
> O=C(CN1CCCC1c1ccc2c(c1)OCCCO2)Nc1ccccc1F (stereo not given)
    36%[activator] | 32%[activator]
> CCCOc1ccc(CN(C(=O)c2cc(=O)c3ccc(C)cc3o2)C2CCS(=O)(=O)C2)cc1 (stereo not given)
    ? | -21%
> Cc1nc2ccc(C)c(C)c2s1
    1% | -1%
> COC(=O)c1ccc(OCc2cc(Br)ccc2OC)cc1
    24% | -6%[1.06 µM]
> N#Cc1ccccc1NC(=O)CCN(Cc1ccco1)C1CC1
    0% | 3%
> CC(C)CC(=O)NCC(c1ccc2c(c1)OCO2)N1CCN(c2ccccc2F)CC1 (stereo not given)
    -13% | 11%
> Cc1ccc(CNC(=O)NCC(=O)N2CCN(S(=O)(=O)c3ccc(Cl)c(Cl)c3)CC2)cc1
    16% | 7%
> Cc1cc(=O)oc2c3c(ccc12)OCN(Cc1ccccc1Cl)C3
    -5% | -5%
> CC1CCCC(NC(=O)c2ccc(NC(=O)CC#N)cc2)C1C (stereo not given)
    32%[activator] | 16%
> CCS(=O)(=O)c1ncc(Cl)c(C(=O)N(Cc2ccccc2)c2ccc(OC)cc2)n1
    ? | -4%
> Cc1ccc2nc(N(Cc3cccnc3)C(=O)CCS(=O)(=O)c3ccccc3)sc2c1
    16%&-14% | -2%&-8%
> Cc1ccc(-c2[nH]c3ccccc3c2C=O)cc1C
    202%[activator] | 47%[activator]
> CC(NC(=O)COC(=O)Cc1n[nH]c(=O)c2ccccc12)c1ccccc1 (stereo not given)
    3% | 0%

Later entries
The line under a structure holds: StopGo FLuc | StopGo RLuc
> Cc1cccc(NC(=O)c2nnn(CC(=O)Nc3ccc(C(C)C)cc3)c2N)c1C
    0% | -10%
> CNc1ccc(OC(F)(F)Cl)cc1
    -9% | 2%
> COc1cc(-c2noc(CN3CCN(c4cccc(Cl)c4)CC3)n2)cc(OC)c1OC
    -7% | -16%
> CC1(C)CC(=O)C2=C(C1)N1CCc3cc4c(cc3C1=CC2c1ccc(F)cc1)OCCCO4 (stereo not given)
    20% | 16%
> Cc1cc(SCC(=O)Nc2ccccc2)nc2ccccc12
    9% | -3%
> CCCC1Cc2c(sc3nc(SCC(=O)c4ccc(F)cc4)nc(N)c23)CO1 (stereo not given)
    3% | 1%
> CCCOC(=O)c1ccc(NC(=O)COc2cc(C)c(Cl)c(C)c2)cc1
    22% | 4%
> CCCCc1nn2cc(-c3ccc(C)c(C)c3)nc2s1
    127%[activator] | 21%
> CCc1ccc(-n2nc(CO)c(C(=O)NCC(c3ccccc3)c3ccccc3)n2)cc1
    -21% | -1%
> S=C1NN=C(c2ccccc2)C(c2ccccc2)N1 (stereo not given)
    ? | ?
> O=C(NCC(c1ccco1)N1CCOCC1)c1sc2ccccc2c1Cl (stereo not given)
    19% | 6%
> CCc1ccc(CCC(=O)Nc2cccc3cccnc23)cc1
    ? | -12%
> COc1cccc(NCc2cc(=O)n3[nH]c(-c4ccc(C)cc4)nc3n2)c1
    15% | 3%
> COCCn1c(-n2nc(C)c(C)c2C)nc2c1c(=O)n(C)c(=O)n2C
    0% | -10%
> O=C(O)C(c1c[nH]c2cc(F)ccc12)N1CCN(c2cccc(Cl)c2)CC1 (stereo not given)
    -16% | -17%
> COc1ccc(-c2csc3ncnc(Nc4cccc(OC)c4)c23)cc1
    -29% | -15%
> COc1cc(NC(=O)c2cccc(F)c2)ccc1NC(=O)c1cc2ccccc2o1
    20%&-2% | -1%&-5%
> COC(=O)CC(NC(=O)c1ccc2c(c1)OCCCO2)c1ccccc1 (stereo not given)
    85%[activator] | 22%
> O=C(CCn1cnc2sc3c(c2c1=O)CCCC3)NCc1cccc(CN2CCCCCC2)c1
    -11% | -13%
> COc1ccc(Cn2ccc3nc(C)c(C(=O)NCc4ccc(OC)cc4OC)cc3c2=O)cc1
    -17% | -11%
> CCOc1ccccc1NC(=O)CSc1nccn1Cc1ccc(F)cc1
    10% | 20%
> COP(=S)(OC)Oc1ccc(Sc2ccc(OP(=S)(OC)OC)cc2)cc1
    -11% | -11%
> CCOC(=O)c1ccccc1NC(=O)CSc1nc(=O)[nH]c2c1CCC2
    -19% | -1%
> O=c1c2ccsc2ncn1Cc1coc(-c2cccc(Cl)c2)n1
    21% | 12%
> O=C(CCCCn1c(=O)c2ccccc2n(CC(=O)Nc2ccc(F)cc2F)c1=O)NCc1ccccc1Cl
    -26% | -13%
> CCOC(=O)c1nc(N2CCOCC2)c2ccccc2n1
    8% | -9%
> CNS(=O)(=O)c1cccc(C(=O)OCc2cc(=O)oc3cc(C)ccc23)c1
    -8% | -14%
> O=C(Cn1c(=O)n(Cc2ccc3c(c2)OCO3)c(=O)c2sccc21)N1CCCC1
    17% | 20%
> Cc1ccc2onc(CNC(=O)NCc3ccccc3)c2c1
    36%[activator] | 8%
> CCN(CC)S(=O)(=O)c1ccc2c(c1)N(CC(=O)Nc1ccc(F)cc1F)C(=O)C1CCCN21 (stereo not given)
    -21% | -8%

Six entries out of the list, ordered by number of heavy atoms, high to low.
The line under a structure holds: StopGo FLuc | StopGo RLuc
> O=C(CCn1cnc2sc3c(c2c1=O)CCCC3)NCc1cccc(CN2CCCCCC2)c1
    -11% | -13%
> COc1cc(NC(=O)c2cccc(F)c2)ccc1NC(=O)c1cc2ccccc2o1
    20%&-2% | -1%&-5%
> O=C(NCC(c1ccco1)N1CCOCC1)c1sc2ccccc2c1Cl (stereo not given)
    19% | 6%
> COCCn1c(-n2nc(C)c(C)c2C)nc2c1c(=O)n(C)c(=O)n2C
    0% | -10%
> Cc1ccc2onc(CNC(=O)NCc3ccccc3)c2c1
    36%[activator] | 8%
> CNc1ccc(OC(F)(F)Cl)cc1
    -9% | 2%

(further entries)
The line under a structure holds: StopGo FLuc | StopGo RLuc
> Cc1ccc(-c2nc3ccccc3o2)cc1NC(=O)C1CC1
    10% | 1%
> COc1cc(OC)c(OC)cc1CN1CCN(Cc2cc(OC)c(O)c(OC)c2)CC1
    12% | -6%
> Cc1c(O)ccc2c(CN3CCN(Cc4cccc(C(F)(F)F)c4)CC3)cc(=O)oc12
    -45% | -38%
> CCCOc1ccc(CN(C(=O)c2cc(=O)c3cc(Cl)ccc3o2)C2CCS(=O)(=O)C2)cc1 (stereo not given)
    ? | 0%
> Cc1cnc(NC(=O)Cc2ccc3ccccc3c2)s1
    553%[activator] | 510%[activator]
> COC(=O)c1cc2sc(C)cc2n1Cc1nc(-c2ccc(C)cc2)oc1C
    20% | -8%
> Cc1nn(C)c2c1c(-c1ccccc1)cc(=O)n2Cc1ccc(Br)cc1F
    -2% | 15%
> O=C(c1cc(-c2ccc(-c3ccccc3)cc2)nc2ccccc12)N1CCN(c2ncccn2)CC1
    25% | -4%
> COc1cc(NC(=C(C#N)C#N)C(F)(F)C(F)(F)F)cc(OC)c1
    17% | -4%
> CCOC(=O)c1ccc(Nc2nc(N)c(C(=O)c3ccc(C)cc3C)s2)cc1
    0% | 50%[activator]
> Cc1cnc(C(=O)NCC(c2ccccc2)c2c[nH]c3ccccc23)cn1 (stereo not given)
    8% | 11%
> COc1ccc(N2CCN(CCCNC(=O)c3ccc4nc(N5CCCCC5)sc4c3)CC2)cc1
    9% | -13%
> COC(=O)CCc1sc(Nc2ccc(OC)cc2)nc1-c1ccc(OC)cc1
    42%&15%[activator] | 3%&-4%
> Cc1ccc(-c2cn(-c3ccc(Cl)cc3)c(S(=O)(=O)CC(=O)Nc3ccccc3)n2)cc1
    95%[activator] | ?
> COc1cc(OC)c(NC(=O)NC(C(=O)N2CCc3ccccc32)c2ccccc2)cc1Cl (stereo not given)
    -21% | -7%
> COC(=O)c1ccc2nc(C)cc(Nc3ccccc3C)c2c1
    11% | -10%
> Cc1cccc(-c2nc3cc(NC(=O)/C=C/c4ccco4)ccc3o2)c1
    177%[activator] | -3%
> O=C(Nc1ccccc1C(=O)NC1CCCC1)c1cccc(-n2cnnn2)c1
    25% | 24%
> Cc1nnc(N2CCCC(C(=O)Nc3ccccc3C(F)(F)F)C2)c2nn(-c3ccccc3)c(C)c12 (stereo not given)
    16% | -5%
> Cc1ccc(Oc2ccc(NC(=O)C3(C#N)CCCC3)cc2)cc1
    ? | ?
> O=C(CN1N=C(c2ccccc2)CCC1=O)NCc1ccc(F)cc1Cl
    25% | 6%
> CCc1ccc(-c2cc(C)no2)cc1S(=O)(=O)Nc1cc(Cl)ccc1OC
    29% | 58%[activator]
> COc1ccccc1OC(C)C(=O)c1ccc(Cl)cc1 (stereo not given)
    0% | 18%
> COc1ccc(Cl)cc1N1CC(O)=C(c2nc3ccc(C)cc3[nH]2)C1=N
    -5% | -10%
> Cc1cccc(Cc2c(C)nc(N3CCN(Cc4ccccc4)CC3)[nH]c2=O)c1
    10% | 7%
> COc1cccc(Cc2nc3ccccc3nc2SCC(=O)Nc2cccc(C)c2)c1
    -2% | -1%
> Cc1ccc(C)c(Sc2ccc(NC(=O)C3CCC(C(C)(C)C)CC3)cc2)c1 (stereo not given)
    16% | 2%
> N#Cc1nc(-c2ccc(OCc3ccccc3)cc2)oc1N1CCCCC1
    4% | 8%
> CC(=O)Nc1cc(-c2nc3cc(C(C)C)ccc3o2)ccc1Cl
    129%[activator] | 0%
> N#Cc1ccccc1OCC(=O)OCc1ccc(C(N)=O)cc1
    -6% | -2%

New compounds follow
The line under a structure holds: StopGo FLuc | StopGo RLuc
> O=C(NCc1ccccc1)c1cc(-c2cccnc2)nc2ccccc12
    -6% | -6%
> CCN1CCN(Cc2nc3c(c(=O)n(C)c(=O)n3C)n2Cc2c(F)cccc2Cl)CC1
    -6% | -8%
> CCN(CC)CCNC(=O)NC(=O)c1ccccc1
    -8% | -7%[1.06 µM]
> N#Cc1c(NC(=O)CCn2nnc(-c3cccc(Cl)c3)n2)sc2c1CCCC2
    36%[activator] | 32%[activator]
> O=C(NCC1CC1)C(=O)Nc1ccc2cc[nH]c2c1
    142%[activator] | 5%
> CCOc1ccc(NC(=O)CC2C(=O)N(c3ccccc3)C(=O)N2CCc2sccc2C)cc1 (stereo not given)
    40%[activator] | 102%[activator]
> NC(=O)c1ccc2c(c1)-c1ccccc1C2=O
    15% | 15%
> NC(=O)NC(=O)CSCc1ccccc1
    3% | -8%
> COc1cc(OC)c(C(=O)Nc2nnc(C(F)(F)F)s2)cc1OC
    12% | -1%
> COc1ccc(Cc2nnc(SCC(=O)Nc3ccc(F)cc3)n2C)cc1
    7% | 12%
> COc1ccccc1-c1nnc2ccc(Oc3cccc(NC(C)=O)c3)nn12
    12% | -10%
> OC12CC3CC(C1)CC(NCc1ccco1)(C3)C2
    24% | -7%
> Cc1nc2cc(NC(=O)COc3cccc(F)c3)ccc2o1
    0% | 15%
> COc1cc(C2CC(=O)Nc3[nH]ncc32)ccc1OCc1ccc(Cl)cc1 (stereo not given)
    33%[activator] | ?
> COC(=O)c1ccccc1N(C)S(=O)(=O)c1cc2c3c(c1)CC(=O)N3CCC2
    -8% | 5%
> Cc1ccc(CNC(=O)CN2C(=O)CSc3c2c(C)nn3-c2ccccc2)cc1
    -12% | -11%
> Cc1ccsc1CNC(=O)Cc1c(F)cccc1Cl
    121%[activator] | 0%
> CCc1cccc(NC(=O)c2cc3c(=O)n(Cc4ccccc4)ccc3nc2C)c1
    -21% | -12%
> N#Cc1nc(-c2ccccc2F)oc1NCc1ccc(Cl)cc1
    73%[activator] | 132%[activator]
> COc1cc(CNC(=O)c2ccc3nc(Cc4ccccc4F)oc3c2)cc(OC)c1OC
    ? | ?
> Cc1ccc(C)c(C(=O)NCC(C)C)c1
    25% | 19%
> C=C(C)Cn1c(NCCOC)nc2c1c(=O)n(C)c(=O)n2C
    2% | -8%

Source: PubChem (National Center for Advancing Translational Sciences (NCATS))
